# Screening data as filed in PubChem BioAssay.
# ClpP mod = qHTS Assay for Activators of ClpP; ATP-dependent Clp protease proteolytic subunit (Bacillus subtilis (strain 168)), P80244; purified B. subtilis ClpP, FRET peptide cleavage, 20 min; Potency, µM (doses to about 57.5 µM), for the others: at the top dose activity change, negative = active; 340,000 tested, 1.9% active; AID 651965, 2013; active = well fitted falling curve with a large enough effect; inconclusive = small, poorly fitted or top-dose-only effect; inactive = no such curve, though single readings can be large or run the other way; note: potency is the fitted concentration of half-maximal effect; the source files actives as falling curves though it sought activators and does not explain the sign; nearly all actives have a fitted effect of over 65% in size; many hits overshoot -100%
# Target sequence (P80244 whole entry, looked up): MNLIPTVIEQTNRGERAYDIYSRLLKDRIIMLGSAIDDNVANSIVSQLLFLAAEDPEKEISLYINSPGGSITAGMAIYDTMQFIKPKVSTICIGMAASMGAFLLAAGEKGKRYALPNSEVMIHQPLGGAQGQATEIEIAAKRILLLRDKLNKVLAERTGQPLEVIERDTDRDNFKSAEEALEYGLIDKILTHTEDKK
#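 Purified B. subtilis ClpP, 10 microg/mL final in Tris/HCl pH8 with KCl, BSA, glycerol and Tween-20, cleaved an Abz/nitrotyrosine-quenched decapeptide. Fluorescence (ex 320, em 430) was read at 0 and 20 min at room temperature. Delta was normalized to 5.8 microM ADEP and DMSO/no-enzyme controls.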
# gsp antag = gsp mutant antagonism | gsp-mutant cells, cAMP HTRF, 30 min; control for the full effect not named in the record | Potency, µM (titrated, usually from 76.9 µM), for inactives: at the highest dose activity change, negative = inhibition, hits mostly inhibitors | 340,000 tested, 0.4% active | AID 624288; active = falling curve of any shape with a large fitted effect; inconclusive = falling curve, mostly with a smaller effect; inactive = flat or rising curve; cell line not stated here;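 note: intracellular cAMP measured with PDE inhibitor Ro 20-1724 present during compound exposure; potency is the fitted concentration of half-maximal effect; % is set by controls: 0 for no effect and ±100 for the full control effect; nearly all actives have a fitted effect of over 65% in size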
#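 G418-selected cells were plated in DMEM/10% FBS for 16-24 h at 37C, then treated with compounds plus the PDE inhibitor […] (300 uM solution added) for 30 min at 37C. Intracellular cAMP was measured by HTRF after 30 min lysis at room temperature.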
# TRPML1 ag = agonists of human TRPML1 channel; Q9GZU1; TRPML1-expressing cells, Ca2+ dye fluorescence, FDSS; host cell line not named in the record; reference of the full effect not given here; activation, % (concentration not given with the values); 410,000 tested, 0.12% active; in the data active = activation above about 50%; inconclusive = about 30% to 50%; inactive = below about 30%; note: 0% is about no effect; the text of the record puts the active cut at 80%
# Target sequence (Q9GZU1 whole entry, looked up): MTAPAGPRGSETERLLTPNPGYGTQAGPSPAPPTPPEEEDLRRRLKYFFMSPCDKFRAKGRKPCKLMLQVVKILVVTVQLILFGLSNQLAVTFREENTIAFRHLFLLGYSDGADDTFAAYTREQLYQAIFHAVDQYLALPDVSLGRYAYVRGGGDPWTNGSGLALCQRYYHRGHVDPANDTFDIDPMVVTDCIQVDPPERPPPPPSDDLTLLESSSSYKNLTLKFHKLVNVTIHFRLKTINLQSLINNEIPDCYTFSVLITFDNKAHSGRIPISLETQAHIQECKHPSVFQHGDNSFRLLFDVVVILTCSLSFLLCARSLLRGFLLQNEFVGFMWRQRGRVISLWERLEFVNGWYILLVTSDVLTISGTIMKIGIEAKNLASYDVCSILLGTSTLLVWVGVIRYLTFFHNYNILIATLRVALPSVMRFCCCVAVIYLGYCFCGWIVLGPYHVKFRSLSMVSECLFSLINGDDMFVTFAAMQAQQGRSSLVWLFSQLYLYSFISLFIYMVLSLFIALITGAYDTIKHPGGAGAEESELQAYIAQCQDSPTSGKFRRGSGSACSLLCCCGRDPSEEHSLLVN
#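 Calcium fluorescence on an FDSS kinetic reader gave the read-out. Tet-induced TRPML1-DL cells were plated overnight, dye-loaded (Ca8 with quencher, 45-90 min, room temperature, dark), then read 110 s after compound addition, and again 110 s after 4uM final 54-4 (EC80).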
# gsp ag = activates gsp, the McCune-Albright syndrome mutation. gsp mutant cells, cAMP HTRF, 30 min; control for the full effect not named in the record. Potency, µM (series often up to 76.9 µM), without a hit: at the highest dose activation (cAMP increase), hits mostly activators. 340,000 tested, 0.13% active; active = well fitted activation curve with a large enough effect; inconclusive = small, poorly fitted or top-dose-only effect, or another doubt; inactive = no such curve, though single readings can be large or run the other way; cell line not stated here;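 note: phosphodiesterase inhibitor Ro 20-1724 added with compounds to block cAMP breakdown; potency is the fitted concentration of half-maximal effect; nearly all actives have a fitted effect of over 60% in size; about a fifth of the inactives were tested at one dose only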
#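 Cells in DMEM/10% FBS with G418 were pretreated with compounds in DMSO plus […] (300 uM stock) for 30 min at 37C. cAMP was measured by HTRF (cAMP-d2 plus anti-cAMP antibody-K) after 30 min at room temperature.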
# Menin MLL FP FL = inhibitors of human menin-MLL interaction, wild-type MLL peptide | Fluorescence polarization, fluorescein-MLL peptide displacement from menin | FP activity change, % at 61.4 µM | 290,000 tested, under 10 active | AID 1766; inconclusive = falling polarisation curve, or a change in total fluorescence; inactive = total fluorescence flat and polarisation flat or rising; no compound was filed as active; the % refers to the polarisation; negative = inhibition;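 note: % of control where 0% means no effect; inhibitors lower the polarisation; unlabelled MLL peptide was the positive control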
# TRPML1 blocker = inhibitors of human TRPML1 channel; Q9GZU1; TRPML1-inducible cells, Ca2+ dye fluorescence, FDSS; stronger effect = lower value; inhibition of EC80 agonist-evoked calcium signal; activity change, negative = inhibition, % (test concentration not listed); 390,000 tested, 0.02% active; AID 624415; in the data active means activity change below about -50%; inconclusive means about -30% to -50%; inactive means above about -30%;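 note: stimulus is agonist 54-4 at its EC80 concentration; % is set by controls: 0 for no effect and ±100 for the full control effect; compound concentration not given in the record; the text of the record puts the active cut at -80%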
#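 Tet-induced TRPML1-DL cells loaded with Ca8 no-wash calcium dye were read kinetically on FDSS. Compound addition was followed by EC80 agonist 54-4 (4 uM final); inhibition was read over 110 s.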
# * = called active by the depositor; ? = inconclusive; . = not tested or not shown; & = joins results of further samples; [ ] = dose if it differs, or a comment.
SMILES,ClpP mod,gsp antag,TRPML1 ag,gsp ag,Menin MLL FP FL,TRPML1 blocker
COC(=O)c1sccc1NC(=O)Nc1ccc(C)c(C)c1,-14%,-18%,-0.7,-41%[inhibitor],.,50
Cc1cc(C)cc(N2CC(c3nc(-c4cccc(Cl)c4)no3)CC2=O)c1 (stereo not drawn),-1.7%,.,2.7,.,.,26
COc1ccc(OCC(=O)N2CCN(C(=O)c3ccc(OC)cc3)CC2)cc1,-0.8%,.,3.9,.,.,4
Cc1nc(NC(=S)NC(=O)c2cccs2)ccc1Br,3.4%,-5%,-0.3,7%,0.5,17
COc1cc(-c2cc(C(=O)O)c3cc4c(cc3n2)OCCO4)cc(OC)c1OC,-5.8%,-1%,0.3,-8%,-1.6,14
CC(C)C[C@@H](CNCC(=O)[C@H](CC(C)C)NC(=O)c1[nH]cnc1C(=O)N[C@@H](C)CN)NC(=O)c1nc[nH]c1C(=O)N[C@@H](Cc1ccccc1)C(=O)O,0.4%,11%,-0.7,.,.,7
Cc1ccc(N(CC(=O)N/N=C/c2ccc(OCC(N)=O)cc2)S(C)(=O)=O)cc1Cl,.,-3%,-0.8,12%[15.4 µM],3.3,1
CN(C)S(=O)(=O)c1cccc(NC(=O)CNCC2CCCCC2)c1,-0.3%,2%,0.8,-5%,6.3,7
COC(=O)c1ccccc1-c1c2ccc(=N)cc-2oc2cc(N)ccc12,.,-3%,99*,0%[15.4 µM],.,-23
CCCc1cc(=O)oc2cc(OCC(=O)N3C[C@H]4C[C@@H](C3)c3cccc(=O)n3C4)c(Cl)cc12,-22%,1%,.,.,1.0,.
CCOC(=O)C1CCN(C(=O)C(C)Sc2ccc(Cl)cc2)CC1 (stereo not drawn),-1.5%,-7%,0.2,-67%[inhibitor],-0.6,21
CCOc1ccccc1NC(=O)C1=C(C)Nc2ncnn2C1c1ccccn1 (stereo not drawn),-1.6%,.,0.1,.,.,35
COc1ccc(-c2noc(CCC(=O)N3CCN(c4ccc(Cl)cc4)CC3)n2)cc1,0.7%,-3%,-0.7,.,.,-10
CCC(Sc1nc2n[nH]c(C)c2c(=N)n1-c1cccc(Cl)c1C)C(=O)N(CC)CC (stereo not drawn),2.5%,8%,0.3,-1%,2.3,-14
O=C(Cn1c(=O)oc2cc(S(=O)(=O)N3CCCC3)ccc21)N1CCCC1,3.3%,-4%,-0.1,-35%[inhibitor],-0.3,26
CCN1CCC[C@H]1CNC(=O)c1c(O)c(Cl)cc(Cl)c1OC,-10.0%,6%,-1.0,.,4.3&-6.6&-0.4&-4.9,5
Cc1ccc(N(Cc2ccccc2)C(=O)Cc2ccc(S(=O)(=O)N3CCOCC3)s2)cc1,-2.8%,-32%,2.2,2%[15.4 µM],.,8
COc1ccc(NC(=O)Nc2cccc3c2O[C@H](CN(C)C(=O)NC2CCCCC2)[C@@H](C)CN([C@H](C)CO)C3=O)cc1,-1.2%,-5%,-0.2,18%,.,21
CCOC(=O)c1c(NC(=O)c2nn(C)cc2[N+](=O)[O-])sc(C)c1C,.,4%,-0.2,-23%[15.4 µM],-6.7,3
COc1ccccc1-n1nc(C(=O)Nc2ccc3c(c2)OCO3)c2ccccc2c1=O,-3.6%,-5%,0.3,-3%,-5.6,20
CCc1ccc(N/C(=N/c2nc(C)cc(C)n2)NC(C)=O)cc1,2.1%,-18%,-0.7,-1%,-1.0,-4
O=C(COC(=O)C1=COCCO1)Nc1ccccc1Oc1ccccc1,0.5%,-6%,0.8,-35%[inhibitor],10,7
O=C(O)CCC(=O)Nc1ccc2c(c1)Cc1cc(NC(=O)CCC(=O)O)ccc1-2,0.7%,-6%,1.2,-19%,-2.7,42
Cc1ccc(-n2c(=O)c3ccc(C(=O)NCc4ccco4)cc3n(Cc3cccc(Cl)c3)c2=O)cc1,-6.0%,.,0.0,.,.,-8
COc1ccc(CNC(=O)c2ccc3c(c2)CCN3S(=O)(=O)c2ccc(Cl)cc2)cc1,-0.4%,.,0.8,.,.,33
CCn1c(=O)c(C(=O)NCc2ccc(OC)cc2)c(O)c2ccccc21,-6.5%,9%,-0.9,25%,-0.3,-6
CCOc1cccc(C=Nc2cc(C)cc(C)c2O)c1O,-0.6%,-29%,1.4,3%,-1.9,3
Cc1cc(-n2c(SCc3ccccc3F)nc3[nH]ncc3c2=O)ccc1Cl,-6.4%,.,2.9,.,.,4
COc1ccccc1-c1n[nH]nc1C1=CC(=O)C[C@H](c2ccc(F)cc2)C1,-3.5%,.,1.9,1%,.,34
O=C(COC(=O)c1ccccc1NCCO)NCc1cccs1,.,4%,1.7,-4%[15.4 µM],.,10
COC(=O)CCC(=O)OC1(C)C(=O)C2=CN(CCCOC(C)C)C(c3ccc(OC)cc3)=CC2=C(Br)C1=O (stereo not drawn),0.8%,-25%,0.6,?,?,-2
O=c1c2cnn(-c3ccc(Cl)cc3)c2ncn1Cc1ccc(Cl)cc1Cl,-10%,.,-1.2,.,.,22
O=C(COc1ncnc2cc([N+](=O)[O-])ccc12)NCCc1ccc(Cl)cc1,.,.,-0.7,6%[15.4 µM],-4.3,4
CCCSCCCNC(=O)C1CCCN(C(=O)c2cnn(-c3ccccc3)c2-n2cccc2)C1 (stereo not drawn),-1.4%,.,-1.0,.,.,15
O=C(CCc1nc(-c2ccccc2)c(-c2ccccc2)o1)OCc1ccc(Br)cc1,28µM*,-10%,1.1,13%,-2.3,2
COC(=O)c1scc(C)c1NC(=O)Nc1ccccc1,17%,8%,0.5,27%,-0.8,-6
CC(CCc1ccccc1)NC(=O)c1ccco1 (stereo not drawn),-1.7%,2%,-0.6,4%,-2.9,31
COc1ccc(C(=O)Nc2nnc(S(=O)(=O)N3CCN(c4ccc(C)cc4)CC3)s2)cc1,-2.9%,.,1.1,.,.,11
CCCCOc1ccc(C(C)NC(=O)CCS(=O)(=O)Cc2ccccc2F)cc1 (stereo not drawn),2.5%,-1%,2.3,-3%,0.8,-14
CC(C)C1Nc2ccc(S(N)(=O)=O)cc2C2C=CCC21 (stereo not drawn),-8.2%,-7%,-0.7,4%,?,-1
CCCCCC(=O)N1C[C@@H](O)[C@H](n2cc(C3CC3)nn2)C[C@@H]1c1ccc(C)cc1,0.6%,.,-0.5,-45%,.,13
N#Cc1cccc(NC(=O)c2cncn2-c2ccccc2)c1,.,5%,1.0,-29%,1.4,5
CCOC(=O)c1c(C)[nH]c(C(=O)OCC(=O)c2ccc3c(c2)NC(=O)CO3)c1C,-0.4%,-2%,-0.2,15%,.,4
O=C(Nn1c(=O)[nH]c2ccccc2c1=O)c1ccco1,-14%,-5%,0.0,-9%,5.0,-12
COCC1CCN(C(=O)CCc2nnc(C3(c4ccc(Cl)cc4)CCC3)o2)C1 (stereo not drawn),0.3%,2%,-0.3,0%[15.4 µM],3.4,-7

# Next section (2 carried over from the part before).
SMILES,ClpP mod,gsp antag,TRPML1 ag,gsp ag,Menin MLL FP FL,TRPML1 blocker
O=C(Nn1c(=O)[nH]c2ccccc2c1=O)c1ccco1,-14%,-5%,0.0,-9%,5.0,-12
COCC1CCN(C(=O)CCc2nnc(C3(c4ccc(Cl)cc4)CCC3)o2)C1 (stereo not drawn),0.3%,2%,-0.3,0%[15.4 µM],3.4,-7
CCOC(=O)C1=C(C)c2ccccc2OC1(C)C(=O)OCC (stereo not drawn),1.7%,6%,-0.8,.,1.2[94.6 µM],-8
COC(=O)c1cc2c(s1)CS(=O)C2 (stereo not drawn),-7.8%,6%,1.1,-1%,2.2,5
O=C(CN1C(=O)/C(=C\c2ccco2)SC1=S)Nc1ccc(O)cc1C(=O)O,3.9%,1%,0.5,-9%,.,12
S=C1NC[C@H](c2ccccc2)N1CC1CCCCC1,-3.7%,-19%,0.8,6%,-9.2,13
Cc1ccc(OCC(=O)N(Cc2nc(-c3ccccc3)no2)C(C)C)cc1C,-0.7%,.,5.1,.,.,23
CCOc1ccc(C2c3[nH]c4ccccc4c3CCN2C(=O)Cn2cncn2)cc1 (stereo not drawn),.,-5%,0.7,-5%[15.4 µM],-0.6,12
CN(C)S(=O)(=O)c1ccc(C(=O)N2CC(=O)Nc3ccc(F)cc3C2c2ccc(F)cc2)cc1 (stereo not drawn),0.5%,-1%,-0.1,2%,-3.1,3
CCOc1ccccc1N1CC(C(=O)N(CC)CC(=O)Nc2ccc3c(c2)OCCO3)CC1=O (stereo not drawn),-3.4%,-1%,0.1,15%,.,37
OCC1CCCCN1C(=S)Nc1cccc(Cl)c1 (stereo not drawn),-0.5%,12%,-0.2,-3%[15.4 µM],-2.0,-13
Cc1ccnc(OC(C(=O)O)C(OCc2ccccc2)(c2ccccc2)c2ccc(C(F)(F)F)cc2)n1 (stereo not drawn),-1.4%,-2%,.,-41%[inhibitor],-2.8,.
Cc1ccc(Nc2nc3nonc3nc2N(C)C)cc1,-0.5%,6%,1.0,-53%[inhibitor],1.4,-7
CCOc1ccc(-n2nc3ccc(NC(=O)COc4ccccc4)cc3n2)cc1,-26%,.,0.6,.,.,6
CCOC(=O)N1CCN(C(=O)CN(C2CCCCC2)S(C)(=O)=O)CC1,1.8%,8%,-0.4,7%,0.6,-7
CC(C)(C)C(=O)NC1CCN(C(=O)N2CCCC2)CC1,-1.7%,-3%,-0.8,16%,0.2,-1
Cc1cccc(-n2c(Cn3nc(C)c([N+](=O)[O-])c3C)n[nH]c2=S)c1,0.6%,-2%,-0.5,12%,2.0,0
Cn1c(=O)c2c(ncn2CC(=O)OCC(=O)c2ccc(OC(F)F)cc2OC(F)F)n(C)c1=O,-1.5%,.,-0.7,?,.,2
O=C(CC(CC(=O)c1ccccc1)C(=O)O)c1ccccc1,-2.4%,-1%,0.3,-17%,0.4,16
Cc1cc(NC(=O)Cn2c(C)nc3ccccc3c2=O)ccc1Br,-4.5%,-2%,0.4,12%,0.9,-8
COC(=O)c1ccc(/C=C/C(=O)OCC(=O)Nc2cc(C)on2)cc1,.,1%,0.6,4%,.,46
CCOC(=O)c1cn(CC2CC2)c2cc(F)c(F)cc2c1=O,.,-12%,2.9,26%,1.5,-12
Cc1ccc2oc(-c3ccc(Cl)c(NC(=O)c4cc5ccccc5o4)c3)nc2c1,-16%,.,0.4,.,.,11
O=C(CCn1nc(-c2ccc(Cl)cc2)ccc1=O)N1CCN(c2ccc(F)cc2)CC1,0.6%,-6%,0.2,11%,-5.4,-11
Cc1cc(N2CCN(C(c3ccccc3)c3ccc(Cl)cc3)CC2)n2ncnc2n1 (stereo not drawn),-1.2%,?,-0.1,?,0.3,45
CCc1nnc(NC(=O)c2cc(-c3ccc(C)o3)nc3ccccc23)s1,-20%,-15%,0.8,28%,.,0
CC(C)CC(=O)Nc1ccccc1-c1nnn(CC(=O)N2CCc3ccccc3C2)n1,2.1%,-9%,0.4,-14%,3.1,-1
